Mtb hypoxia rep: reduces hypoxia-regulated biosensor signal in M. tuberculosis; M. tuberculosis hypoxia-regulated fluorescent reporter, fluorescence; actives 0.1% (n = 300,000); fluorescence inhibition, % (concentration not given with the values);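 active means 35 to 45% if threefold the growth effect, above 45% if 1.5-fold the growth effect; inactive means the rest, general growth blockers included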;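 further: wells of about 50 µL received 100 nL stock; 0% = vehicle wells and 100% = reference inhibitor wells; whole bacteria with a GFP reporter of the hypoxia response; strong numbers were not always called active; many hits fall short of the cut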
RN4220 kill: S. aureus RN4220 growth inhibition. OD600, 16 h. inhibition, % (test concentration not listed). actives 0.33% (n = 330,000). AID 1259311;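 active means z-score of -3 or lower and OD600 up to 0.18 on both plates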;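 further: plate controls were untreated cells for no effect and reference antibiotic for full effect; stock transfer was 100 nL into about 80 µL; one replicate is shown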
Autofluor counter: counter-screen for toxin protease inhibitors: compound fluorescence | actives 3.1% (n = 360,000) | compound autofluorescence counterscreen, microsphere flow cytometry; active compounds read high | fluorescence intensity (test concentration not listed);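 active means at least 3 SD above the mean of all compounds, about 16000 in these data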;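 further: 100 nL of 1 mM stock went into each well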
BJeLR viability: kills HRASV12-expressing BJeLR cells; AID 1554; BJeLR (HRASV12) viability, CellTiter-Glo ATP luminescence, 48 h; reference of the scale not given here; inhibition, % (concentration not given with the values); actives 0.17% (n = 300,000);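 active means replicate mean above 50%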;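 further: 50 nL library stock added to about 25 µL; numbers are from one replicate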
Sa ugtP lethal: compounds lethal to S. aureus RN4220 ugtP deletion mutant; OD600 growth, 16 h; some inactives read as strong as hits; growth inhibition, % (no concentration beside the values); actives 0.54% (n = 330,000);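 active means z-score under -3 and OD600 up to 0.15 on both plates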;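 further: plate controls were untreated wells for no effect and antibiotic for full effect; wells of about 80 µL received 100 nL stock; the first replicate is given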
PrP UTR inh: inhibition of PrP 5' UTR reporter expression. inhibition, % (test concentration not listed). cell-based PrP 5' UTR mRNA reporter, plate reader. actives 0.35% (n = 340,000). AID 488862;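 active means every replicate at 50% or more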;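 further: 0 = median of the neutral control wells; tested in H4 reporter cells; numbers are from one replicate; inactives centre near -14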
Mtb hypoxia rep growth: also measured in Mtb hypoxia rep; calls as there; growth inhibition, %; measured here: M. tuberculosis growth (absorbance);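 0% = vehicle and 100% = reference antibiotic; read after six days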
Numbers without * were called inactive. Not a hit list. About 4.1% of those tested had a hit in this group.

What do the screens show for `Cc1ccc(NC(=O)C(c2ccccc2)N2CCN(CC(=O)NC3CC3)CC2)cc1Cl` (stereo unspecified)?
Mtb hypoxia rep: -2; RN4220 kill: 1.3; Autofluor counter: 4083; Sa ugtP lethal: 1; PrP UTR inh: -28; Mtb hypoxia rep growth: -5

Results for CCOC(=O)C1(Cc2cccc(OC)c2)CCN(C/C=C/c2ccccc2)CC1 ?
Mtb hypoxia rep: -7; RN4220 kill: 9.6; Autofluor counter: 5095; BJeLR viability: 10; Sa ugtP lethal: 25; PrP UTR inh: -19; Mtb hypoxia rep growth: 1

How did Cc1cccc(-c2oc3ccccc3c2C#CCCCCO)c1 do in these assays?
Autofluor counter: 3853; BJeLR viability: -5; PrP UTR inh: -3

Results for N#Cc1cccc(Oc2ccc(-c3cnc4ccccc4n3)cc2)c1C#N ?
Mtb hypoxia rep: 2; RN4220 kill: 3.1; Autofluor counter: 2514; BJeLR viability: 5; Sa ugtP lethal: 10; PrP UTR inh: -7; Mtb hypoxia rep growth: -4

What do the screens show for `Cc1ccc(C)c(C(C)NC(=O)c2ccncc2)c1` (stereo unspecified)?
Mtb hypoxia rep: 6; RN4220 kill: 3.6; Autofluor counter: 4519; BJeLR viability: 4; Sa ugtP lethal: 16; PrP UTR inh: -18; Mtb hypoxia rep growth: -1

Results for Cc1nnc(SCCn2c(N3CCCCC3)nc3c2c(=O)[nH]c(=O)n3C)s1 ?
Mtb hypoxia rep: 7; RN4220 kill: 2.8; Autofluor counter: 2081; BJeLR viability: 2; Sa ugtP lethal: 2; PrP UTR inh: -10; Mtb hypoxia rep growth: 7

How did COc1ccc2oc(C(=O)N3CCN(S(=O)(=O)c4c(C)c(C)cc(C)c4C)CC3)c(C)c2c1 do in these assays?
Mtb hypoxia rep: -6; RN4220 kill: -0.4; Autofluor counter: 4111; Sa ugtP lethal: 10; PrP UTR inh: -8; Mtb hypoxia rep growth: 1

Results for Cc1ccccc1OC1CCN(C(=O)c2cc(COc3ccccc3)on2)CC1 ?
Mtb hypoxia rep: -3; RN4220 kill: -4.8; Autofluor counter: 6345; BJeLR viability: -4; Sa ugtP lethal: 2; PrP UTR inh: -19; Mtb hypoxia rep growth: 2

Results for CCOC(=O)Cn1c(=O)oc2cc(S(=O)(=O)NC(C)c3ccccc3)ccc21 (stereo unspecified) ?
Mtb hypoxia rep: 0; RN4220 kill: 5.6; Autofluor counter: 5286; BJeLR viability: 4; Sa ugtP lethal: -4; PrP UTR inh: -19; Mtb hypoxia rep growth: 4

How did O=C(NCCCNC(=O)c1cccs1)c1cccs1 do in these assays?
Mtb hypoxia rep: 19; RN4220 kill: 0.0; Autofluor counter: 4626; BJeLR viability: 7; Sa ugtP lethal: -5; PrP UTR inh: -74; Mtb hypoxia rep growth: 16

Results for COCCCNC(=S)NNC(=O)c1cccnc1 ?
Autofluor counter: 20168*; BJeLR viability: -3; PrP UTR inh: -12

Results for Cc1ccccc1CC1(CO)CCCN(C(=O)c2ccccc2Cl)C1 (stereo unspecified) ?
Mtb hypoxia rep: -2; RN4220 kill: 13; Autofluor counter: 2072; BJeLR viability: 4; Sa ugtP lethal: -4; PrP UTR inh: -14; Mtb hypoxia rep growth: 7

What do the screens show for `CN1C(=O)CCC2(c3ccccc3)CC=C(O)C=C12` (stereo unspecified)?
Mtb hypoxia rep: 6; RN4220 kill: 3.3; Autofluor counter: 3811; Sa ugtP lethal: 3; PrP UTR inh: -22; Mtb hypoxia rep growth: 2

How did Clc1cccc(CNCCCSc2ncccn2)c1Cl do in these assays?
Mtb hypoxia rep: -3; RN4220 kill: 3.5; Autofluor counter: 4060; BJeLR viability: -6; Sa ugtP lethal: 6; PrP UTR inh: -4; Mtb hypoxia rep growth: -1

Results for O=C(Nc1ccc(NS(=O)(=O)c2ccccc2)cc1)c1ccccc1 ?
Autofluor counter: 4015; BJeLR viability: 0; PrP UTR inh: -24

What do the screens show for `CCCCn1c(SCC(=O)N2c3ccccc3CCc3ccccc32)nc2c1c(=O)n(C)c(=O)n2C`?
RN4220 kill: -1.4; Autofluor counter: 3309; BJeLR viability: -2; Sa ugtP lethal: 0; PrP UTR inh: -7

How did Cc1ccc(N(CC(=O)NC2CCCC2)C(=O)CCC(=O)Nc2nc(C)cs2)cc1 do in these assays?
Mtb hypoxia rep: 6; RN4220 kill: 3.9; Autofluor counter: 2801; BJeLR viability: -4; Sa ugtP lethal: -1; PrP UTR inh: 3; Mtb hypoxia rep growth: -3

How did O=C(NCc1ccc2c(c1)OCO2)c1nnc(Cc2ccc(Cl)cc2)o1 do in these assays?
RN4220 kill: 3.0; Autofluor counter: 4422; BJeLR viability: -9; Sa ugtP lethal: 5; PrP UTR inh: -16

How did CCC1CN(C(=O)Nc2ccc(C)cc2)c2cc(C)ccc2O1 (stereo unspecified) do in these assays?
Mtb hypoxia rep: 3; RN4220 kill: 0.1; Autofluor counter: 4389; BJeLR viability: 7; Sa ugtP lethal: 5; PrP UTR inh: -3; Mtb hypoxia rep growth: 12

What do the screens show for `CCCN(CCC)CCCNC(=O)Cn1cnc2sc(C)c(S(=O)(=O)N3CCOCC3)c2c1=O`?
Mtb hypoxia rep: 4; RN4220 kill: 0.5; Autofluor counter: 4313; BJeLR viability: 0; Sa ugtP lethal: 10; PrP UTR inh: -26; Mtb hypoxia rep growth: 4

Results for COC(=O)C1CCCN1C(=O)COc1ccc(Br)cc1Cl (stereo unspecified) ?
Mtb hypoxia rep: 3; RN4220 kill: -1.3; Autofluor counter: 1994; BJeLR viability: -14; Sa ugtP lethal: -3; PrP UTR inh: 2; Mtb hypoxia rep growth: 8

What do the screens show for `CNC(=S)NC1CC2CCCC(C1)N2Cc1ccco1` (stereo unspecified)?
Mtb hypoxia rep: -1; RN4220 kill: 3.6; Autofluor counter: 8016; BJeLR viability: 2; Sa ugtP lethal: 4; PrP UTR inh: -19; Mtb hypoxia rep growth: 7

What do the screens show for `COCCOCCn1c(/C=C/c2ccccc2)nc2ccccc21`?
Mtb hypoxia rep: -3; RN4220 kill: 4.0; Autofluor counter: 3990; BJeLR viability: 15; Sa ugtP lethal: 1; PrP UTR inh: -50; Mtb hypoxia rep growth: 9

How did CCOC(=O)/C=C/C(=O)OCC(=O)NC(c1ccccc1)c1ccccc1 do in these assays?
Mtb hypoxia rep: -3; RN4220 kill: 7.1; Autofluor counter: 2418; BJeLR viability: 18; Sa ugtP lethal: 1; PrP UTR inh: -23; Mtb hypoxia rep growth: 7

How did CCOC(=O)C1CCN(C(=O)COC(=O)c2cc([N+](=O)[O-])ccc2N2CCOCC2)CC1 do in these assays?
Mtb hypoxia rep: 5; RN4220 kill: 5.5; BJeLR viability: -1; Sa ugtP lethal: 3; PrP UTR inh: -6; Mtb hypoxia rep growth: 8

Results for CN(C)c1ccc(CNC(=O)CCNS(=O)(=O)c2cc(Br)cnc2N)cc1 ?
Mtb hypoxia rep: 5; RN4220 kill: 3.1; Autofluor counter: 4186; BJeLR viability: 4; Sa ugtP lethal: 1; PrP UTR inh: -10; Mtb hypoxia rep growth: 0

What do the screens show for `COCCn1c(SCC(=O)c2cc(C)n(C)c2C)nc2ccccc2c1=O`?
Mtb hypoxia rep: 2; RN4220 kill: -0.5; Autofluor counter: 3373; BJeLR viability: 2; Sa ugtP lethal: 2; PrP UTR inh: -17; Mtb hypoxia rep growth: 7

What do the screens show for `COc1ccc(/C=C2\SC(=S)N(CCC(=O)N3CCOCC3)C2=O)cc1`?
Autofluor counter: 4154; BJeLR viability: 2; PrP UTR inh: -4

How did COc1ccc(CNC(=O)COC(=O)c2ccc(C(=O)c3ccccc3)cc2)cc1 do in these assays?
Mtb hypoxia rep: 5; RN4220 kill: -2.8; Autofluor counter: 3722; Sa ugtP lethal: 6; PrP UTR inh: -14; Mtb hypoxia rep growth: 18

What do the screens show for `O=c1nc(SCc2c(F)cccc2Cl)nc(-c2ccc(Cl)cc2)[nH]1`?
Mtb hypoxia rep: 4; RN4220 kill: 27; Autofluor counter: 6046; BJeLR viability: 9; Sa ugtP lethal: 41; PrP UTR inh: -19; Mtb hypoxia rep growth: 4

How did Cc1ccc(S(=O)(=O)NC(=O)c2ccccc2)cc1C(C)C do in these assays?
Mtb hypoxia rep: 3; RN4220 kill: 24; Autofluor counter: 3344; BJeLR viability: -2; Sa ugtP lethal: 8; PrP UTR inh: -17; Mtb hypoxia rep growth: 3

What do the screens show for `CCOc1ncccc1C(=O)OCc1cc(=O)oc2c(C)c(C)ccc12`?
Mtb hypoxia rep: -2; RN4220 kill: 1.2; Autofluor counter: 3975; BJeLR viability: 2; Sa ugtP lethal: 1; PrP UTR inh: -21; Mtb hypoxia rep growth: -4

How did CCN1C(=O)NC(c2ccccc2)(c2ccccc2)C1=O do in these assays?
Mtb hypoxia rep: 3; RN4220 kill: 1.0; Autofluor counter: 4763; BJeLR viability: -3; Sa ugtP lethal: 1; PrP UTR inh: -12; Mtb hypoxia rep growth: 17

What do the screens show for `Cc1ccc(C(=O)NCCSc2ccccc2)cc1S(=O)(=O)Nc1ccccc1`?
Mtb hypoxia rep: 3; RN4220 kill: 8.9; Autofluor counter: 11472; BJeLR viability: -1; Sa ugtP lethal: -4; PrP UTR inh: -24; Mtb hypoxia rep growth: 10

How did CCOC(=O)c1c(C)[nH]c(C)c1C(=O)COC(=O)[C@@H](NC(=O)c1ccco1)C(C)C do in these assays?
Mtb hypoxia rep: 0; RN4220 kill: 3.4; Autofluor counter: 3717; Sa ugtP lethal: -1; PrP UTR inh: -20; Mtb hypoxia rep growth: 5

What do the screens show for `CC(=O)N1CCc2cc(NS(=O)(=O)c3cccs3)ccc21`?
Mtb hypoxia rep: 1; RN4220 kill: 24; Autofluor counter: 2513; BJeLR viability: 10; Sa ugtP lethal: 17; PrP UTR inh: -8; Mtb hypoxia rep growth: 3

How did COc1ccc(CN(Cc2ccc(C(=O)O)cc2)C(=S)Nc2ccccc2F)cc1OC do in these assays?
Mtb hypoxia rep: -4; RN4220 kill: -0.6; Autofluor counter: 4285; BJeLR viability: -1; Sa ugtP lethal: -7; PrP UTR inh: -8; Mtb hypoxia rep growth: 10

What do the screens show for `COC(=O)c1ccc(-c2noc(CN(C)Cc3ccncc3C)n2)cc1`?
Mtb hypoxia rep: -9; RN4220 kill: 3.2; Autofluor counter: 3260; BJeLR viability: 5; Sa ugtP lethal: -8; PrP UTR inh: -7; Mtb hypoxia rep growth: 0

Results for O=C(COc1cccnc1[N+](=O)[O-])N1CCN(S(=O)(=O)c2ccc3ccccc3c2)CC1 ?
Mtb hypoxia rep: -7; RN4220 kill: 9.1; Autofluor counter: 2557; BJeLR viability: 0; Sa ugtP lethal: 2; PrP UTR inh: -26; Mtb hypoxia rep growth: 1

What do the screens show for `O=C(COC(=O)c1cnccn1)c1ccc(-c2ccccc2)cc1`?
Mtb hypoxia rep: -12; RN4220 kill: 2.5; Autofluor counter: 6524; BJeLR viability: -3; Sa ugtP lethal: -1; PrP UTR inh: -7; Mtb hypoxia rep growth: -2

Of the compounds above, these have an aryl methoxy group.
Results for CCOC(=O)C1(Cc2cccc(OC)c2)CCN(C/C=C/c2ccccc2)CC1 ?
Mtb hypoxia rep: -7; RN4220 kill: 9.6; Autofluor counter: 5095; BJeLR viability: 10; Sa ugtP lethal: 25; PrP UTR inh: -19; Mtb hypoxia rep growth: 1

How did COc1ccc2oc(C(=O)N3CCN(S(=O)(=O)c4c(C)c(C)cc(C)c4C)CC3)c(C)c2c1 do in these assays?
Mtb hypoxia rep: -6; RN4220 kill: -0.4; Autofluor counter: 4111; Sa ugtP lethal: 10; PrP UTR inh: -8; Mtb hypoxia rep growth: 1

What do the screens show for `COc1ccc(/C=C2\SC(=S)N(CCC(=O)N3CCOCC3)C2=O)cc1`?
Autofluor counter: 4154; BJeLR viability: 2; PrP UTR inh: -4

How did COc1ccc(CNC(=O)COC(=O)c2ccc(C(=O)c3ccccc3)cc2)cc1 do in these assays?
Mtb hypoxia rep: 5; RN4220 kill: -2.8; Autofluor counter: 3722; Sa ugtP lethal: 6; PrP UTR inh: -14; Mtb hypoxia rep growth: 18

How did COc1ccc(CN(Cc2ccc(C(=O)O)cc2)C(=S)Nc2ccccc2F)cc1OC do in these assays?
Mtb hypoxia rep: -4; RN4220 kill: -0.6; Autofluor counter: 4285; BJeLR viability: -1; Sa ugtP lethal: -7; PrP UTR inh: -8; Mtb hypoxia rep growth: 10

Screens: PubChem BioAssay, several laboratories
